From PubChem
StopGo FLuc – lowers the firefly signal of an FMDV 2A StopGo reporter; HEK cells with a luciferase reporter of 2A StopGo recoding; Potency, µM (highest dose often 57.5 µM), without a hit: at the top dose signal change, negative = less light; 120,000 tested, 0.23% active; active = well fitted falling curve with a large enough effect; inconclusive = small, poorly fitted or top-dose-only effect; inactive = no such curve, though single readings can be large or run the other way; further: nearly all actives have a fitted effect of over 60% in size; overnight with compound
StopGo RLuc – lowers the Renilla signal of an FMDV 2A StopGo reporter; HEK cells with a luciferase reporter of 2A StopGo recoding; AID 1745857; 120,000 tested, 0.32% active; Potency, µM (top dose mostly 57.5 µM), inactives show top-dose signal change, negative = less light; active means well fitted falling curve with a large enough effect; inconclusive means small, poorly fitted or top-dose-only effect; inactive means no such curve, though single readings can be large or run the other way; further: nearly all actives have a fitted effect of over 55% in size; overnight with compound
Numbers without * were called inactive; ? = inconclusive; [ ] = another dose, or the depositor's remark. On the % scale 0 is the no-effect control and ±100 the full control effect; potency means the concentration at half of the fitted maximal effect.

Values run as follows: StopGo FLuc, StopGo RLuc
> COc1cc(C2C(C#N)=C(N)OC3=C2C(=O)CC(C)(C)C3)ccc1OC(=O)N1CCOCC1 (stereo not given)
→ -3.2%, -2.9%
> CCOc1ccc(CCNC(=O)c2cn(CC)c3ccc(S(=O)(=O)N4CCc5ccccc5C4)cc3c2=O)cc1OCC
→ 0.0%, -15.7%
> Cc1cccc(C)c1NC(=O)CCC1CCCC1
→ -9.7%, 11.3%
> COc1ccc2c(c1)c1c(c(=O)n(-c3ccccc3C)c(=O)n1Cc1c(F)cccc1Cl)n2C
→ -15.8%, -6.9%
> COc1cc(CNC(C)(C)CO)cc(Cl)c1OCc1cccs1
→ 21.3%, 13.4%
> COC(=O)CC1Oc2ccc(F)cc2-n2cc(-c3ccc(Cl)cc3)nc21 (stereo not given)
→ 13.7%, 4.0%
> COc1ccc(C2C(C#N)=C(N)N(c3c(F)cccc3F)C3=C2C(=O)CCC3)cc1OC (stereo not given)
→ -1.2%, 63.2%[activator]
> COc1cc(C(=O)Nc2ncccc2C)cc(Cl)c1OCC(C)C
→ 10.1%, 12.8%
> CN(C)C(=O)CN1CCN(C(C(=O)O)c2c[nH]c3ccccc23)CC1 (stereo not given)
→ -1.3%, -3.1%
> CCN(CC)S(=O)(=O)c1ccc2c(c1)nc(CN(C)C(=O)Nc1ccc(C)c(F)c1)n2C
→ 24.7%, 11.0%
> ClCC(Cl)C[n+]1cccc2ccccc21 (stereo not given)
→ 7.6%, 10.6%
> CN1C(C(=O)N2CCN(c3ccccc3)CC2)=CC(c2ccc(F)cc2)=NS1(=O)=O
→ -5.5%, 1.7%
> CC(Sc1cccc[n+]1[O-])C(=O)Nc1ccc(C(N)=O)cc1 (stereo not given)
→ -3.0%, 4.7%
> O=C1/C(=C/c2ccc(Cl)cc2Cl)C(c2ccccc2)Oc2ccccc21 (stereo not given)
→ 16.9%, -7.7%
> O=C1/C(=C/c2ccc3ccccc3c2)CCc2ccccc21
→ 187.6%[activator], 40.8%[activator]
> Cc1nc2ccc(S(=O)(=O)N(CC(=O)N3CCCCC3)Cc3ccccc3)cc2s1
→ -2.0%, 135.0%[activator]
> CCSc1nc2ccccc2c(OCc2cc(C(=O)OC)ccc2OC)c1C(=O)OC
→ 44.1%[activator], 42.9%[activator]
> N#CCc1ccc(OCc2cccc(N)c2)cc1
→ 30.1%[activator], 22.1%
> Cc1ccc2oc(=O)cc(-c3cc4ccccc4o3)c2c1
→ 6.9%, -8.4%
> C=CCNC(=O)NC(C)CC (stereo not given)
→ 29.3%, 10.1%
> Cc1nnc(NC(=O)c2cccc3c2ccn3C)s1
→ 17.8%, 44.1%[activator]
> COC(=O)c1ccc(NS(=O)(=O)c2ccc3ccccc3c2)cc1
→ 7.3%, 196.4%[activator]
> COc1ccc(C)cc1C(C)NC(=O)c1cc(=O)[nH]c2ccccc12 (stereo not given)
→ -9.4%, -6.5%
> Cc1cc(C(=O)Nc2ccc(SC3CCCC3)cc2)c(C)o1
→ 27.1%, 14.6%
> COc1ccc(C)cc1C(C)NC(=O)Cc1c[nH]c2ccccc12 (stereo not given)
→ -8.0%, 20.7%
> N#C/C(=C/c1ccoc1)c1nc(-c2ccc(C3CCCCC3)cc2)cs1
→ 39.3%[activator], 0.2%
> CC(C)C(=O)N1CCN(C(=O)CCc2c[nH]c3ccccc23)CC1
→ -4.6%, -0.3%
> CCc1noc(C)c1C(=O)Nc1sc2c(c1C#N)CCC(CC)C2 (stereo not given)
→ 9.1%, -19.8%
> Clc1ccc(-c2nc(N3CCCC3)c3ccccc3n2)c(Cl)c1
→ -8.1%, -8.6%
> COC(=O)c1ccc(Oc2c(C)oc3cc(OCC(=O)c4ccc(OC)cc4)ccc3c2=O)cc1
→ 17.6%, 1.4%

In another format: entries from further up
> COc1ccc(C)cc1C(C)NC(=O)Cc1c[nH]c2ccccc12 (stereo not given)
- StopGo FLuc: -8.0%
- StopGo RLuc: 20.7%

> N#C/C(=C/c1ccoc1)c1nc(-c2ccc(C3CCCCC3)cc2)cs1
- StopGo FLuc: 39.3%[activator]
- StopGo RLuc: 0.2%

> CC(C)C(=O)N1CCN(C(=O)CCc2c[nH]c3ccccc23)CC1
- StopGo FLuc: -4.6%
- StopGo RLuc: -0.3%

> CCc1noc(C)c1C(=O)Nc1sc2c(c1C#N)CCC(CC)C2 (stereo not given)
- StopGo FLuc: 9.1%
- StopGo RLuc: -19.8%

More records.
Values run as follows: StopGo FLuc, StopGo RLuc
> O=C(CSC1=Nc2ccccc2C2=NC(Cc3ccccc3)C(=O)N12)Nc1ccccc1F (stereo not given)
→ 33.0%[activator], 36.2%[activator]
> COC(=O)c1c(C)[nH]c(-c2ccc(F)cc2OC)c1C1C(=O)Nc2ccc(F)cc21 (stereo not given)
→ 14.5%, 45.7%[activator]
> CC(=O)c1c(C)[nH]c(C(=O)C(C)OC(=O)c2ccc(Cl)cc2F)c1C (stereo not given)
→ 15.2%, 14.3%
> O=C(O)c1ccc(-c2ccccc2F)o1
→ 29.2%, 8.4%
> Cc1cc(SCC(=O)N(CCC#N)CCC#N)nc2c(C)cccc12
→ -3.5%, 0.3%
> Cc1cc(O)c2c(C)c(CC(=O)NCc3ccco3)c(=O)oc2c1
→ 37.3%[activator], 43.5%[activator]
> CCOC(=O)c1cc(S(=O)(=O)N2CCN(c3cccc(C)c3)C(C)C2)[nH]n1 (stereo not given)
→ -11.5%, 13.6%
> CCN(CC)S(=O)(=O)c1ccc(C(=O)N=c2sc3cccc(OC)c3n2C)cc1
→ 13.0%, 7.5%
> Cc1cc(C)c(S(=O)(=O)NCCc2sc(-c3cccc(F)c3)nc2C)c(C)c1
→ 24.1%, 276.9%[activator]
> COc1cc(C(=O)Oc2ccc3c(c2)CCC3)cc(Cl)c1OCC(C)C
→ -1.1%, -2.3%
> O=C1c2ccccc2CCC1C(Sc1ccccc1)c1ccc(Cl)cc1 (stereo not given)
→ 155.6%[activator], -6.8%
> CCOc1ccc(NC(=O)CSc2nc3c(oc4ccccc43)c(=O)n2-c2cc(C)cc(C)c2)cc1
→ -18.7%, -15.0%
> CCCN(CCC)S(=O)(=O)NC1CCN(c2ncccn2)CC1
→ 7.7%, 75.2%[activator]
> COc1ccc(CNC(=O)c2ccc(NC(=O)N3CCCCc4ccccc43)cc2)cc1
→ -9.6%, -7.8%
> CCOc1ccc(C(=O)NCC(c2ccco2)S(=O)(=O)c2cccs2)cc1 (stereo not given)
→ -7.4%, 11.0%
> CCN(Cc1ccc(OC)c(OC)c1)C(=O)c1cc(C)nc2ccccc12
→ -9.0%, 2.8%
> CCC(=O)NCCSCc1cccs1
→ 31.4%, ?
> CC(=O)c1ccc(O)c(C)c1
→ 16.0%, 8.3%
> Cc1ccc(CN(CC(=O)N2CCOCC2)S(=O)(=O)c2ccc(Cl)cc2)cc1
→ 5.3%, 0.0%
> Cc1cc(O)c2c(C)c(CC(=O)NCCCn3ccnc3)c(=O)oc2c1
→ 1.3%, -1.2%
> CCc1ccc(C2Cc3ccccc3N2)cc1 (stereo not given)
→ 315.8%[activator], 0.0%
> COc1ccc(OC)c2c1cc(C(=O)NCCCc1nnc3ccccn13)n2C
→ -0.8%, 1.3%
> CC(C)(O)C#Cc1ccc(C(=O)NCC(N)=O)cc1
→ 10.5%, -11.0%
> O=C(CCC1CCCC1)NCC12CC3CC(CC(C3)C1)C2
→ 0.0%, 18.1%
> O=C(CSc1nnc2scc(-c3ccc(Cl)cc3)n12)Nc1ccccc1F
→ -7.7%, 17.2%
> O=C(O)CNS(=O)(=O)c1ccc(Cl)cc1
→ 0.0%, 0.0%
> Cc1ccc(S(=O)(=O)NCCc2nnc3ccc(SCc4ccccc4C)nn23)cc1
→ -19.7%, 0.0%
> C=C(Br)CN1CCOCC1
→ 4.1%, 8.7%
> Nc1nccnc1C(=O)NCCc1cn2ccccc2n1
→ 104.6%[activator], 10.8%
> CC(C)(C)C1CCc2oc3ccc(NS(=O)(=O)c4ccc(C(=O)O)cc4)cc3c2C1 (stereo not given)
→ -9.8%, -1.2%
> CCN(CC)S(=O)(=O)c1ccc(C)c([N+](=O)[O-])c1
→ -8.2%, 2.1%
> O=C(O)CCC(=O)Nc1ccc(S(=O)(=O)NCC(=O)c2ccccc2)cc1
→ -0.4%, 9.2%
> Cc1cccc(-n2ncc(C(=O)NCc3ccc4c(c3)OCO4)c2C2CCN(C(=O)OC(C)(C)C)CC2)c1
→ -23.1%, 12.9%
> CCOC(=O)c1cnc2ccc(OC)cc2c1Nc1ccccc1CC
→ ?, ?
> CC(C)(C)c1ccc(C(=O)Nc2cccc(C#N)c2)cc1Br
→ 139.2%[activator], 19.3%
> COC(=O)c1cccc(C(=O)NCC2CCCCC2)c1
→ 51.8%[activator], 31.4%[activator]
> COc1ccccc1C1=NOC(C(=O)N2CCN(c3ccccc3)CC2)C1 (stereo not given)
→ 46.4%[activator], 0.8%
> CCOc1ccc(-c2cc(-c3nc(-c4ccc(OC)c(OC)c4)no3)[nH]n2)cc1
→ 18.5%, -6.1%
> COc1ccc(S(=O)(=O)N2CCSC2c2cc(OC)c(OC)cc2OC)cc1 (stereo not given)
→ -23.6%, -22.1%
> Cc1ccc(C)c(NC(=O)CC2NCCNC2=O)c1 (stereo not given)
→ 8.5%, -4.1%
> COc1ccc(-n2c(=O)c3c4c(sc3n(Cc3ccc(F)cc3)c2=O)CCCC4)c(OC)c1
→ -11.1%, 1.4%
> O=C(NCc1cccs1)c1ccc(CSc2nc3cccnc3n2Cc2ccc(F)cc2)cc1
→ -16.2%, 79.2%[activator]
> CN1CCN(C(=O)CN2CCN(C(C(=O)O)c3cn(CCC(=O)O)c4cc(F)ccc34)CC2)CC1 (stereo not given)
→ 5.7%, -2.1%
> NC(Cc1ccc(Cl)cc1)c1ccccc1 (stereo not given)
→ 36.9%[activator], 39.2%[activator]
> COc1cccc(C2C3=C(CC(C)(C)CC3=O)Nc3ccccc3N2C(=O)C(F)(F)F)c1OC (stereo not given)
→ 5.7%, 58.1%[activator]
> COc1ccc2oc(-c3ccc(C)c(NC(C)=O)c3)nc2c1
→ 155.3%[activator], 18.8%
> COc1ccc(CN(C)CC(=O)N2c3ccccc3NC(=O)CC2C)cc1F (stereo not given)
→ -0.4%, -11.3%
> COc1ccc(S(=O)(=O)NC2CCCCC2)c2cccnc12
→ 18.5%, 68.3%[activator]
> COC(=O)c1cccc(Cn2nnc3sc4c(c3c2=O)CCC(C(C)(C)C)C4)c1 (stereo not given)
→ 43.2%[activator], -7.8%
> CN(Cc1ccc(C(C)(C)C)cc1)C(=O)C1CCN(C(=O)c2ccc(C(F)(F)F)cc2)CC1
→ -29.9%, ?

The list continues.
Values run as follows: StopGo FLuc, StopGo RLuc
> CNc1nc2c(c(=O)n(C)c(=O)n2C)n1CC(O)COc1ccc(OC)cc1 (stereo not given)
→ ?, 22.4µM*
> CCCc1ccc(S(=O)(=O)N2CCC(c3nnc(-c4cccc(C)c4)o3)CC2)cc1
→ 33.6%[activator], 42.1%[activator]
> CCCn1nc(C)cc1-c1nn2c(-c3cc(F)ccc3F)nnc2s1
→ 9.3%, 2.7%
> COC(=O)C(C)Oc1cc(Br)c(C=O)cc1OC (stereo not given)
→ 0.0%, 0.0%
> COc1ccc(C=O)cc1COc1ccc(C=O)cc1
→ 12.3%, -1.0%
> O=C(CCS(=O)(=O)c1cccc2nonc12)Nc1ccc(F)cc1F
→ 5.4%, 27.8%
> COc1ccc(-n2cc(C(=O)Nc3ccc(F)c(F)c3)nn2)cc1
→ 61.9%[activator], 0.6%
> CSc1cccc(NC(=O)C2CCCCC2)c1
→ 0.0%, 44.0%[activator]
> O=C(O)c1ccccc1C(=O)Nc1ccc(S(=O)(=O)Nc2nccs2)cc1
→ -6.0%[11.5 µM], 1.7%
> COc1ccc(S(=O)(=O)N(C)Cc2cnn(C)c2)cc1OC
→ -2.3%, -1.8%
> N#Cc1cn(CC(=O)Nc2cccc(Cl)c2Cl)c2ccccc12
→ ?, ?
> O=C(CCn1nc(-c2ccc(Cl)cc2)c2ccccc2c1=O)N1CCCCC1
→ 0.0%, 39.2%[activator]
> CC(C)c1ccc(CNC(=O)CSc2nc3ccccc3o2)cc1
→ 18.2%, 6.9%
> O=C(CS(=O)(=O)Cc1ccccc1)Nc1ccc(F)cc1
→ 24.1%, 16.1%
> Cc1nc2cc(NS(=O)(=O)c3ccccc3C(F)(F)F)ccc2o1
→ 2.2%, 44.2%
> Cc1ccc(C(=O)N2CCc3cc(CNC(=O)COc4ccccc4)ccc32)cc1
→ 9.0%, 56.1%[activator]
> C=C(C)Cn1c(-n2nc(C)cc2C)nc2c1c(=O)n(CCOC)c(=O)n2C
→ -5.6%, -16.9%
> CCN(CC)S(=O)(=O)c1ccc2c(c1)N(CC(=O)N1CCN(c3ccc(Cl)cc3)CC1)C(=O)CO2
→ -13.2%, -5.8%
> Cc1nc(-c2cccs2)c(CC(=O)Nc2ccccc2)s1
→ 0.7%, -1.4%
> Cn1c(=O)c2c(nc3n(-c4ccc(O)cc4)c(-c4ccc(Br)cc4)cn23)n(C)c1=O
→ -19.7%, -2.9%
> COc1ccc(CCNC(=O)c2cc(-c3ccccc3)nc3ccccc23)cc1OC
→ 58.2%[activator], 36.8%[activator]
> Cc1cc(C)c2nc(N3C(=O)C(O)=C(C(=O)c4ccco4)C3c3cccc(O)c3)sc2c1 (stereo not given)
→ 39.1%, 58.5%[activator]
> CCOC(=O)C1=C(CN(C)Cc2ccccc2)NC(=O)NC1c1ccc(CC)cc1 (stereo not given)
→ ?, -25.8%
> CC(C)(C)NC(=O)CN1CCCN(C(=O)C2CCN(c3nc4ccccc4o3)CC2)CC1
→ -26.4%, -27.1%
> O=C(NC1(C(F)(F)F)N=C(c2ccccc2)N(C2CCCCC2)C1=O)c1ccc(F)cc1 (stereo not given)
→ -5.7%, 61.1%[activator]
